Mtb bLac sens = beta-lactam sensitization of Mtb H37Rv. inhibition, % at 25 µM. 0.27% of 330,000 active. AID 434955. M. tuberculosis H37Rv growth with meropenem, percent inhibition; hits of this screen are not shown here;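 active means about 74% or more and at least 40 points above the plate without the antibiotic, then above 30% in a dose series; inconclusive means first-round hits that could not be retested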;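 further: growth measured after seven days incubation then overnight dye step; 0% = bacteria only wells and 100% = bacteria with antibiotic; twin plates without the antibiotic show which effects depend on it; some results filed as inactive read as strong as hits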
RecA splice inh = Mtb RecA intein splicing inhibition; P9WHJ3; cell-free RecA intein splicing, fluorescence; inhibition, %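 (about 9 µM by stock and volumes)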; 0.75% of 290,000 active; AID 2221; in the data active means inhibition above about 30%; inconclusive means no clear call, values can overlap the other calls;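 further: 0% = vehicle wells and 100% = reference inhibitor control wells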
Target sequence (P9WHJ3 whole entry, looked up, canonical isoform): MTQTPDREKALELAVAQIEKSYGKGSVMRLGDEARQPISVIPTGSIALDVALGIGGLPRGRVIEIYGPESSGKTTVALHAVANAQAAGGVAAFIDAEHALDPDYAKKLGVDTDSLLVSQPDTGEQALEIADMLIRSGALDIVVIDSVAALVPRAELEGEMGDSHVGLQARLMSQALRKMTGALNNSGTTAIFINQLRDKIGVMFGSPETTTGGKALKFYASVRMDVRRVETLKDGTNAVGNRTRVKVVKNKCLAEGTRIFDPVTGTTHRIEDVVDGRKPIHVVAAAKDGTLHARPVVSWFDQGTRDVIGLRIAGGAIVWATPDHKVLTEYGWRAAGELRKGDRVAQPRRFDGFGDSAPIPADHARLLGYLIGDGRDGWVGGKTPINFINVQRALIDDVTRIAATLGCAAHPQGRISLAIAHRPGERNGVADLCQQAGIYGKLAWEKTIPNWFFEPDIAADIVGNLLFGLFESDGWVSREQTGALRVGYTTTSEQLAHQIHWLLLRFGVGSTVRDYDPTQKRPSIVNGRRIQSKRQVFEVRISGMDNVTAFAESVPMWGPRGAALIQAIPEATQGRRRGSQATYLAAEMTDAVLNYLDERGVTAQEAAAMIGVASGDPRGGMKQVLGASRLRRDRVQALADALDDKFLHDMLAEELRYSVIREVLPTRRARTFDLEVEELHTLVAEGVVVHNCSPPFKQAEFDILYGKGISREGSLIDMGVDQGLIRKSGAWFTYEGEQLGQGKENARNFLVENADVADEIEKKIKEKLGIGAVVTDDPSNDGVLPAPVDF
Mtb H37Rv = M. tuberculosis H37Rv growth inhibitors, H37Rv strain (AID 1626). inhibition, % at 10 µM; hits with a dose series show IC50 in µM. M. tuberculosis H37Rv growth inhibition; higher % means a stronger effect. 0.95% of 220,000 active;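 active means confirmed in a dose series; inconclusive means inhibition above 80% but not taken into the dose series; inactive means below 80% or under 30% at every dose of the series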;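 further: bacteria incubated seven days before Alamar blue readout; 0% = bacteria only wells and 100% = bacteria with antibiotic wells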
YopH PTP inh = YopH (Yersinia) phosphatase inhibition; AID 898; 0.16% of 140,000 active; inhibition, %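 (about 10 µM by stock and volumes)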; fluorescence Ex485/Em525;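 active means inhibition of 50% or more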;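 further: controls were vehicle for no effect and minimum signal wells for full effect; inactives centre near -20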
Arbovirus anti = blocks arbovirus infection | arbovirus infection cell-based antiviral screen | inhibition, % at 10 µM | 0.37% of 200,000 active | AID 1251;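 active means inhibition from about 30%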;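 further: bluetongue infection of BSR cells; cell survival read as ATP light after 72 h; 0% = infected wells without compound and 100% = uninfected wells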
Arbovirus anti repeat = also measured in Arbovirus anti; calls as there; inhibition, %; measured here: 10K subset replicate screen; many hits read low in the repeat;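 first of two repeat runs on a subset; 0% = infected and 100% = uninfected wells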
Starred values were filed as active, the others as inactive; u = inconclusive; x = not tested or not shown. These rows are one share of the data; rates above refer to the full screens.

SMILES	Mtb bLac sens	RecA splice inh	Mtb H37Rv	YopH PTP inh	Arbovirus anti	others
O=c1c2c(nc3cc(-c4ccc(Br)cc4)[nH]n13)CCCC2	1.5	-2.5	7.8%	x	-14.5
CC1=C(C(=O)O)N2C(=O)C(NC(=O)c3nn(C)c(C)c3Cl)C2SC1 (stereo unspecified)	-3.7	1.2	-3.4%	x	-0.5
CNC(=S)Nn1cnc2ccccc21	-8.1	-15.8	0.2%	x	x
Cc1cc(C(=O)CSc2n[nH]c(N)n2)c(C)n1-c1ccccc1	0.6	-5.4	-6.2%	-16.3	-1.2
CCOc1ccc(NC(=S)/C(=C(\[O-])c2ccc(C)c([N+](=O)[O-])c2)[n+]2ccccc2)cc1	-4.2	4.1	72.0%	22.1	1.3
COc1ccccc1-n1c(CNc2ccc(F)cc2)nnc1SCC(=O)Nc1cc(C)on1	-9.5	-1.0	-4.1%	-15.8	-2.6
O=C(NC1CC1)c1ccc(CS(=O)c2ccccc2)o1 (stereo unspecified)	u	1.4	x	x	x
CCN(CC)S(=O)(=O)c1ccc(NCC2COc3ccccc3O2)c([N+](=O)[O-])c1 (stereo unspecified)	48.0	-0.2	23.7%	-23.1	5.5
N#Cc1ccc(NC(=O)Cn2c3[n+](c4ccc(C(F)(F)F)cc42)CCCCC3)cc1	-14.2	0.3	-2.5%	x	-9.4
COc1ccc(C2(C(=O)Nc3nncs3)CCCC2)cc1	17.4	-2.5	0.2%	8.4	3.7
CN(C)c1cc(NC(=O)CN2CCOCC2)c2ccccc2n1	-2.3	-1.4	x	-18.9	3.8	Arbovirus anti repeat=4.1
COc1cc2c(cc1OC)CN(C(=O)CCNS(=O)(=O)c1ccc(Br)cc1)CC2	-2.8	-4.6	x	x	x
C=C(C)Cn1c(NCCOC)nc2c1c(=O)[nH]c(=O)n2C	-2.6	-1.3	-3.0%	-15.0	-6.6
COc1ccc(CN(C)C(=O)c2cccc(NS(=O)(=O)c3ccccc3)c2)c(OC)c1	-1.5	-0.5	x	x	x
CC(/C=N/n1c(COc2ccccc2)n[nH]c1=S)=C\c1ccccc1	3.8	11.7	0.0%	-33.9	3.8
Cc1nc2ccccc2c(=O)n1Cc1ccc([N+](=O)[O-])cc1	-1.0	-1.4	x	x	x
CCn1c(=O)c2c3c(sc2n2c(SCc4ccc(F)cc4)nnc12)CCCC3	-8.1	0.7	x	x	-7.2	Arbovirus anti repeat=-5.2
CS(=O)(=O)N(CC(=O)N1CCN(c2ccccc2)CC1)C1CCCCC1	3.0	-4.7	-5.3%	8.7	6.0
O=C(O)Cn1c(=O)c(-c2ccccc2)nc2ccccc21	-16.9	-4.1	x	x	x
CC(=Nc1ccc(C)c(C)c1)C1=C(O)CSC1=O	94.3	17.7	85.0%	-20.1	2.2	Arbovirus anti repeat=-0.6

Next section; it opens with the 2 that closed the last part.
SMILES	Mtb bLac sens	RecA splice inh	Mtb H37Rv	YopH PTP inh	Arbovirus anti	others
O=C(O)Cn1c(=O)c(-c2ccccc2)nc2ccccc21	-16.9	-4.1	x	x	x
CC(=Nc1ccc(C)c(C)c1)C1=C(O)CSC1=O	94.3	17.7	85.0%	-20.1	2.2	Arbovirus anti repeat=-0.6
COC(=O)[C@H](C(C)C)n1c(C)c(C(C)=O)c(C(C)=O)c1C	9.1	-3.5	-5.1%	-9.1	4.6
COc1cccc(CN2CCC(n3nccc3NC(=O)C3CC3)CC2)c1	-0.5	-4.3	x	x	x
CCCCn1c(SCC(=O)NCc2ccco2)nc2ccccc2c1=O	3.4	-2.0	-0.2%	-21.8	10.1
N#Cc1cnc(SCCc2ccccc2)nc1N	-2.2	-0.3	-2.6%	-22.4	-21.3
O=C(NCCc1ccccc1)C(=O)NCC1CCCN1S(=O)(=O)c1cccs1 (stereo unspecified)	0.3	-0.7	x	x	x
Cc1ccccc1OCc1nnc(SCC(=O)NCc2ccco2)n1C	5.2	1.4	-6.7%	x	4.3
COc1cccc(NC(=O)c2nnn(CCc3ccccc3)c2N)c1	-2.9	-0.9	3.4%	-38.9	-14.8	Arbovirus anti repeat=-12.8
CCOc1ccc(C(=O)Cn2cnc3ccccc3c2=O)cc1	-3.5	-3.6	x	x	x
COc1ccc(-c2noc(CN(C)Cc3ccccc3)n2)cc1	4.7	4.7	x	x	x
CCCCCCCCC(=O)N/N=C/c1ccccn1	100.0	2.5	u	-49.5	-25.6
O=C(NCCSc1ccccc1)c1ccccc1Cl	7.1	-3.5	14.8%	-11.9	-13.5
CCC(C)Nc1nc2c(c(=O)[nH]c(=O)n2C)n1CCOc1ccccc1 (stereo unspecified)	0.9	-0.1	x	x	x
c1ccn2c(CNc3ncnc4sccc34)nnc2c1	-7.4	-7.5	-6.6%	-25.2	-0.7
O=C(NC1CCCCC1)c1cc([N+](=O)[O-])ccc1N1CCOCC1	-8.7	-4.0	-1.8%	-34.2	-7.3
Cc1ccc(/C=N/NC(=O)C(C)Oc2ccccc2[N+](=O)[O-])s1 (stereo unspecified)	0.6	1.8	-3.4%	-37.2	-2.0
N#Cc1ccc(N2C(=O)[C@@H]3C(C(=O)c4cnccn4)=NN[C@@H]3C2=O)cc1	-6.8	x	9.6%	x	x
CCOC(=O)N1CCC(NC(=O)C2CCN(c3nc(-c4ccc(OC)cc4)no3)CC2)CC1	0.6	-0.4	x	-2.8	0.0
N=C1C(c2nc3ccccc3s2)=C(O)CN1Cc1ccco1	-1.9	-0.5	-1.6%	-20.2	-10.2
CN1CCN(CCCCOc2ccccc2-c2ccccc2)CC1	-3.7	1.8	2.1%	x	-40.3
CC(C)(C)NC(=O)C(c1cccs1)N(Cc1ccco1)C(=O)c1csnn1 (stereo unspecified)	-9.3	-0.6	x	x	x
C(/C=C/c1ccccc1)=N/N1CCN(c2ccccc2)CC1	19.4	1.0	-2.0%	-18.0	-5.6
O=C(Nc1cc(=O)[nH]c2nc(-c3ccccc3)nn12)c1ccccc1Cl	72.9	-2.4	59.9%	x	x
O=C(COc1ccccc1C(=O)Nc1ccccc1)c1ccc(Br)cc1	-2.2	-3.0	6.7%	x	0.8
Cn1/c(=N/N=C/c2ccccn2)sc2ccccc21	x	x	-0.1%	x	-3.6
Cc1cc2c(cc1S(=O)(=O)CCC(=O)N1CC(C)CC(C)C1)OCC(=O)N2 (stereo unspecified)	3.7	0.4	x	x	x
Cc1ccccc1CN1CCC(n2nccc2NC(=O)c2ccc3c(c2)OCO3)CC1	2.8	0.2	x	x	x
CN(C)S(=O)(=O)Oc1ccc(C(=O)Nc2cccc(C(F)(F)F)c2)cc1	0.1	1.4	8.7%	x	-2.0
COc1ccccc1CC(=O)c1ccc(OCc2ccccc2)cc1	-7.3	6.8	x	x	x
COc1cc(/C=C/C(=O)OCc2cn3cc(Cl)ccc3n2)ccc1O	7.1	4.3	2.5%	x	x
O=C(NCCc1ccc(Cl)cc1)c1ccc(S(=O)(=O)N2CCCC2)cc1	-14.9	-1.5	x	x	x
CCOc1ccc(NC(=O)CN2C(=O)C(C)SC(C)C2=O)cc1 (stereo unspecified)	-2.3	0.1	-1.4%	x	-3.3
COc1ccc(S(=O)(=O)NCC2CCCN(C(=O)c3occc3C)C2)cc1 (stereo unspecified)	0.8	-0.2	-8.6%	x	6.0
Cc1ccc(Br)cc1S(=O)(=O)Nc1cccnc1	-8.1	-0.3	x	x	x
Clc1cccc(Nc2ncnc3c2cnn3-c2ccccc2)c1	0.1	-2.0	16.2%	x	4.1	Arbovirus anti repeat=1.7
CS(=O)(=O)N(CCc1ccccc1)CC(=O)N1CCCC1	-3.4	0.2	6.3%	x	x
COc1ccc(C(CC(=O)N2CCCC(C)C2)c2c(O)cc(OC)cc2OC)cc1 (stereo unspecified)	-4.6	1.8	4.3%	x	x
COc1ccc(-n2nnnc2/C=C\Nc2ccc(C)cc2)cc1	-7.8	-6.2	-0.8%	x	x
Nc1cccc(C(=O)OCC(=O)c2ccccc2)c1	9.8	-0.5	4.4%	-19.9	-0.5
CN(C(=O)COC(=O)c1ccccc1Cc1ccccc1)c1c(N)n(Cc2ccccc2)c(=O)[nH]c1=O	-5.2	-3.2	x	x	x
O=C(CSc1nc2ccccc2c(=O)n1Cc1ccco1)N1CCCC1	-0.7	2.7	-3.4%	x	-0.1
COCCNC(=S)NC1CC2CCCC(C1)N2Cc1ccco1 (stereo unspecified)	7.9	0.4	-5.8%	-10.6	12.9
CCCS(=O)(=O)N1CCN(Cc2ccccc2OCC)CC1	6.3	0.5	-5.6%	-19.3	-0.9
CCCc1[nH]nc2c1C(c1ccc(O)cc1OCC)C(C#N)=C(N)O2 (stereo unspecified)	-3.7	78.3*	0.5%	-24.5	-5.4
Nc1ccc2nc[nH]c2c1	4.3	48.8*	0.2%	x	-0.6
O=C(NC1CCCC1)c1cc2c(ccc3ccccc32)o1	68.7	1.1	13.7%	4.3	-2.4
CCCC1(CCC)NC(=O)N(CC(=O)Nc2ccccc2OC)C1=O	6.9	-1.0	0.9%	-2.8	0.7
c1ccc2c(c1)nc(N1CCOCC1)c1nnnn12	-1.3	-8.8	-2.5%	-25.1	4.6	Arbovirus anti repeat=-2.9
Cc1ccc(N2CCOCC2)c2c1C(=O)c1ccccc1C2=O	5.0	0.8	15.9%	-22.2	-21.9
O=C(NC1CCCCC1)C(c1ccncc1)N(C(=O)c1csnn1)c1ccccc1 (stereo unspecified)	2.3	-0.9	x	x	x
COc1cc2cc(CN(Cc3cccnc3)C(=O)Nc3ccccc3)c(=O)[nH]c2cc1OC	-2.7	1.5	-1.4%	x	-2.6

The list goes on.
SMILES	Mtb bLac sens	RecA splice inh	Mtb H37Rv	YopH PTP inh	Arbovirus anti	others
CCN(Cc1cnn(C)c1)C(=O)CC1C(=O)NCCN1Cc1cccc(OC)c1OC (stereo unspecified)	-6.6	0.6	6.4%	x	0.2
Cn1c(=O)cc(SCC(=O)N2CCOCC2)c2ccc(Cl)cc21	-8.8	2.2	-5.2%	-36.2	-3.9
CCCCn1c(C(C)NC(=O)c2cccs2)nc2ccccc21 (stereo unspecified)	-1.5	5.9	-4.8%	-18.6	5.9	Arbovirus anti repeat=4.5
C=CCO/N=C/C1C(=O)CC(C)(C)CC1=O	0.6	5.1	-2.1%	13.6	7.7
COc1ccc(C(=O)C2CCN(C(=O)c3ccc(OC)cc3)CC2)cc1	-0.2	-1.8	x	x	x
O=C(O)CSc1nnc(C2CC2)n1-c1ccccc1	-8.3	-2.7	-2.4%	-26.2	-3.0
O=C(c1cccnc1)C1CCCN(Cc2nc(-c3cnccn3)no2)C1 (stereo unspecified)	-4.9	-1.1	-0.5%	x	x
O=[N+]([O-])c1ccc(N2CCN(CCO)CC2)cc1NCc1ccco1	5.1	18.0	4.9%	-27.0	-3.6
COc1ccc(S(=O)(=O)N2CCCC(C(=O)N3CCOCC3)C2)cc1C (stereo unspecified)	-5.6	-3.0	-10.6%	-28.6	-0.3
COc1ccc(/C=N/NC2=NS(=O)(=O)c3ccccc32)cc1	0.6	-4.3	x	x	x

Looked up one by one from the list above:
SMILES	Mtb bLac sens	RecA splice inh	Mtb H37Rv	YopH PTP inh	Arbovirus anti	others
COc1ccc(/C=N/NC2=NS(=O)(=O)c3ccccc32)cc1	0.6	-4.3	x	x	x
Cn1c(=O)cc(SCC(=O)N2CCOCC2)c2ccc(Cl)cc21	-8.8	2.2	-5.2%	-36.2	-3.9

The list goes on.
SMILES	Mtb bLac sens	RecA splice inh	Mtb H37Rv	YopH PTP inh	Arbovirus anti	others
Cc1ccccc1NC(=S)Nc1ccc2[nH]c(=O)[nH]c2c1	-2.4	-4.1	-0.8%	x	x
COc1ccc(C(=O)NCC(=O)OCC(=O)Nc2sccc2C#N)cc1OC	0.3	2.8	8.3%	x	11.9
COc1ccc(CNC(=O)CN(CC2CCCO2)C(=O)CNS(=O)(=O)c2ccc(C)cc2)cc1 (stereo unspecified)	-2.7	3.9	1.5%	-13.8	5.2
O=C(Nc1cccc(-c2csc(Nc3ccccc3)n2)c1)c1ccccc1	88.5	15.0	11.2%	x	x
CCCOc1c(Br)cc(C(=O)NCC)cc1OC	-3.5	0.2	8.3%	-14.2	-6.0
CCCCN(CC)CCNC(=O)c1cc2c(=O)n(C)c3ccccc3c2n1C	-0.8	-2.8	-2.7%	-7.2	9.5	Arbovirus anti repeat=-17.2
CCN(CC)C(=O)CN1C(=O)C(=O)c2ccccc21	-12.5	-1.9	-1.6%	x	-7.6
O=C(CCCN1C(=O)c2ccccc2C1=O)N1CCN(c2ccccn2)CC1	-5.2	-0.7	-2.3%	-14.8	8.0
O=C(NCCCN1CCOCC1)c1ccc(CSCc2cccc(Cl)c2)o1	-7.1	0.1	-23.0%	x	-13.4
Cc1cc(C)n(CC(=O)c2ccc(Cl)cc2)n1	-7.6	-0.6	-2.8%	x	5.7
Cc1ccc(CSc2nc3c(c(=O)[nH]2)CCC3)cc1	5.9	-3.4	-3.9%	-10.8	0.9	Arbovirus anti repeat=3.0
